Mtb MbtI inh: blocks the Mycobacterium tuberculosis siderophore enzyme MbtI | P9WFX0 | purified MbtI enzyme, fluorescence intensity read-out | inhibition, %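 (about 17 µg/mL by stock and volumes)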 | actives 0.89% (n = 100,000) | AID 493033;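 active = above 50% in both replicates, above 80% if mildly self-fluorescent; inactive = the rest, strongly fluorescent compounds included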;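 note: 0% = mean of negative and 100% = mean of positive controls; one replicate is shown; some compounds called inactive have numbers as strong as hits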
Target sequence (P9WFX0 whole entry, looked up): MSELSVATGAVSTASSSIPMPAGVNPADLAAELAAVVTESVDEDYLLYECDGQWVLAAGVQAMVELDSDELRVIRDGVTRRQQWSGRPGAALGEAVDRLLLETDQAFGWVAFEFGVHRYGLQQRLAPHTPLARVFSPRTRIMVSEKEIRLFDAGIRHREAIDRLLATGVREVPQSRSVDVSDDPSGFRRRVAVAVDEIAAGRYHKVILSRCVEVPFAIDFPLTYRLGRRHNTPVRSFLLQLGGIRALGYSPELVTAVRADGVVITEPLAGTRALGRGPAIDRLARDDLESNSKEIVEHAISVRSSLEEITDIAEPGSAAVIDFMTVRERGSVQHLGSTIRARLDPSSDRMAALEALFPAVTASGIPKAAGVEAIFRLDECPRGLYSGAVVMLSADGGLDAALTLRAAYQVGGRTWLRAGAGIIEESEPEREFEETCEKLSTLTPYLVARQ
PV pol inh: inhibitors of poliovirus RNA polymerase binding and polymerization. P03300. poliovirus polymerase elongation, fluorescence polarization; stronger effect = lower value. % elongation, % (compound at 16.7 µg/mL). actives 0.66% (n = 150,000). AID 588519; in the data active = % elongation below about 90%; note: some results filed as inactive read as strong as hits
MenB inh: Mtb MenB enzyme inhibition. P9WNP5. MenB enzyme assay, absorbance read-out; some hits fall short of the stated cut. inhibition, %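 (about 12 µg/mL by stock and volumes)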. actives 0.43% (n = 100,000). AID 540299;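 active = mean of two replicates above 30%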;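 note: 0% = no compound and 100% = wells with inactive enzyme; the first replicate is given; strong numbers were not always called active; inactives centre near -10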
Target sequence (P9WNP5 whole entry, looked up): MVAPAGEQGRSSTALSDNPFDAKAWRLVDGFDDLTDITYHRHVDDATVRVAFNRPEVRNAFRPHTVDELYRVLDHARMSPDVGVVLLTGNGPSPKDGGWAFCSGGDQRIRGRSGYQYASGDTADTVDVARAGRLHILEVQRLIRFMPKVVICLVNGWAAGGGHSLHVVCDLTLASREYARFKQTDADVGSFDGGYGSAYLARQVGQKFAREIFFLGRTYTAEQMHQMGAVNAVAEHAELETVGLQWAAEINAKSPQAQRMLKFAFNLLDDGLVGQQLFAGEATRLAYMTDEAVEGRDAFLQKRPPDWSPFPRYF
PV pol inh intensity: also measured in PV pol inh; calls as there; % elongation; measured here: total intensity read-out; formula for this scale not given here;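 total fluorescence in place of polarization; lower means less elongation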
The depositor's hits bear a star; x = no result given.

SMILES | Mtb MbtI inh | PV pol inh | PV pol inh intensity | MenB inh
CCn1c(SCCOc2ccc(OC)cc2)nc2ccccc21 | -0.1 | 102.0 | 102.0 | -9.4
Cc1cccc(C)c1NC1=NC(C)(C)N=C(N)N1 | 0.3 | 107.0 | 104.0 | -12.2
CC(C)Cn1c(N)c(C(=O)COC(=O)c2ccncc2)c(=O)n(C)c1=O | -15.2 | 110.0 | 120.0 | -11.9
Cc1cc(=O)oc2cc(OCC(=O)C(C)(C)C)c(Cl)cc12 | 3.0 | 105.0 | 104.0 | x
CC12C=CC(CO)(O1)C1C(=O)N(c3ccc(Br)cc3)C(=O)C12 (configuration not stated) | 101.2* | 104.0 | 99.0 | -16.8
COC(=O)c1sc(S(C)(=O)=O)c(C#N)c1-c1cccs1 | 31.8 | 102.0 | 99.0 | -8.3
CC(C)(C)c1cc(O)cc(C(C)(C)C)c1 | -3.9 | 99.0 | 102.0 | -8.0
CC(C(=O)NC(N)=O)N1CCc2ccccc21 (configuration not stated) | 13.6 | 101.0 | 105.0 | 0.7
CCn1c(Cc2ccccc2)nnc1SCc1cccc(C(=O)O)c1 | -5.6 | 98.0 | 99.0 | -13.9
Cn1c(-c2ccco2)nn(C2CC(=O)C3OCC2O3)c1=S (configuration not stated) | x | 100.0 | 97.0 | -7.6
Cc1ccc2c(COC(=O)CCn3c(C)csc3=O)cc(=O)oc2c1 | 2.2 | 106.0 | 108.0 | -4.1
Cc1csc(=Nc2cccnc2)n1Cc1ccco1 | 1.6 | 105.0 | 96.0 | -28.0
N#Cc1ccc(/C=C/C(=O)O)cc1 | 5.7 | 104.0 | 103.0 | -8.1
O=C1C[C@@H]2[C@@H](CO)[C@H](OC(=O)c3ccc(-c4ccccc4)cc3)C[C@@H]2O1 | x | 109.0 | 110.0 | -4.6
CN(C)P(=NC(=S)N1CCCC1)(N(C)C)C12CC3CC(CC(C3)C1)C2 | 2.8 | 101.0 | 105.0 | -7.0
CCCc1cc(=O)n2[nH]cc(-c3ccc(Cl)cc3)c2n1 | 59.0 | 102.0 | 102.0 | -5.4
Nc1cc(N)cc(C(=O)OCN2C(=O)c3ccccc3C2=O)c1 | -125.9 | 103.0 | 107.0 | -14.2
O=c1c(Cl)c(-n2cccn2)cnn1-c1ccc(Cl)cc1Cl | 18.9 | 100.0 | 93.0 | -10.6
c1ccc(C2=NNC(c3ccccc3)C2)cc1 (configuration not stated) | -38.9 | 98.0 | 97.0 | -12.4
CCN(CC)S(=O)(=O)c1cc(C(=O)O)ccc1C | -2.2 | 101.0 | 101.0 | 5.9
CC(C)N(Cc1nnc(-c2ccccc2)o1)C(=O)/C=C/c1cccs1 | -0.1 | 101.0 | 103.0 | -19.2
COc1ccc(NC(=O)NC2CCCN2S(=O)(=O)c2ccc(Cl)cc2)cc1 (configuration not stated) | -15.8 | 107.0 | 113.0 | 0.7
Cn1cccc1CC(=O)N/N=C\c1ccccc1 | 1.8 | 105.0 | 103.0 | -23.5
Cc1c(C#N)c(Sc2ccccn2)nc2ccccc12 | x | 101.0 | 98.0 | -9.6
CCC(C)[C@@H](C(=O)NCc1ccccc1C)N1Cc2ccccc2C1=O (some centres not stated) | -6.8 | 105.0 | 107.0 | -9.2

Further results:
SMILES | Mtb MbtI inh | PV pol inh | PV pol inh intensity | MenB inh
CCC1NCc2c(sc3c2CCCC3)-n2cccc21 (configuration not stated) | 0.6 | 101.0 | 103.0 | -2.2
CC(=O)N1CCN(c2ccc(Oc3ccnc4cc(Cl)ccc34)cc2)CC1 | 5.2 | 102.0 | 102.0 | -18.0
Cc1cc(NCn2ncc3ccccc3c2=O)ccc1Br | -2.8 | 111.0 | 107.0 | -6.5
CCCCN(CC)c1nc(N)c(C#N)c(CC#N)c1C#N | -54.0 | 143.0 | 175.0 | -12.7
Cc1c(-c2nnnn2-c2ccccc2)cnc2ccccc12 | -7.2 | 105.0 | 113.0 | -3.2
S=c1sc2ccccc2n1CN1CCN(c2ccccn2)CC1 | 145.4 | 99.0 | 95.0 | -29.9
CC(NC(=O)OCC1c2ccccc2-c2ccccc21)C(=O)O (configuration not stated) | 14.9 | 101.0 | 90.0 | -17.3
CN=C1SC(CC(=O)NCc2ccccc2)C(=O)N1/N=C/c1c(C)nn(Cc2ccccc2)c1C (configuration not stated) | -10.8 | 107.0 | 101.0 | -18.3
Cn1ccnc1SCC(=O)NC(c1ccccc1)c1ccccc1 | 3.1 | 102.0 | 108.0 | -15.8
CC(C)(CO)NS(=O)(=O)c1ccc2c(c1)C(=NO)c1cc(S(=O)(=O)NC(C)(C)CO)ccc1-2 | 22.6 | 98.0 | 103.0 | 3.6
CC(C)c1ccc(NS(=O)(=O)c2ccc(-n3cccn3)cc2)cc1 | -2.8 | 99.0 | 106.0 | -21.6
C[N+]1(CC[N+]2(C)CCCCC2)CCCCC1 | x | 109.0 | 113.0 | -10.5
CN(C)c1cc(N=C2CCCN2c2ccccc2)c2ccccc2n1 | 0.7 | 103.0 | 103.0 | 0.6
CCOC(=O)c1c(C)noc1/C(C)=N/OC(=O)Nc1cccc(C(F)(F)F)c1 | -4.4 | 101.0 | 104.0 | -6.9
O=C(NCC1CCCO1)C1c2ccccc2Oc2ccccc21 (configuration not stated) | -7.8 | 100.0 | 98.0 | -4.6
CC(=O)N1CCc2cc(NC(=O)CSc3nnc4ccccn34)ccc21 | 6.6 | 100.0 | 101.0 | -10.3
CC(C)CNC(=O)CSc1ncnc2ccccc12 | -9.8 | 100.0 | 102.0 | -0.1
O=S(=O)(c1ccc2nsnc2c1)N1CCCCC1 | 15.2 | 103.0 | 100.0 | -39.7
Cc1snnc1C(=O)Oc1ccccc1-c1nnco1 | -60.9 | 78.0* | 89.0* | 9.8
CCOC(=O)c1c(C)n(CC)c2cc(Br)c(O)cc12 | -6.2 | 106.0 | 101.0 | -72.6
Oc1ccccc1CN1CCCN(Cc2ccccc2O)C1 | -8.8 | 103.0 | 103.0 | -29.5
N#CCn1c(COC(=O)c2cccs2)nc2ccccc2c1=O | -7.2 | 108.0 | 118.0 | -9.0
COCCn1c(C)nc2c(c1=O)c1nc3ccccc3nc1n2-c1ccc(Cl)c(Cl)c1 | 9.2 | 101.0 | 105.0 | 4.5
Cc1c(C(=O)N2CCc3ccccc32)sc2nc3n(c(=O)c12)CCC3 | -3.7 | 101.0 | 102.0 | -14.5
Cc1nn(CC(=O)NCC2CCCO2)c(=O)c2cc3occc3n12 (configuration not stated) | 15.3 | 103.0 | 106.0 | 3.9

Next part:
SMILES | Mtb MbtI inh | PV pol inh | PV pol inh intensity | MenB inh
NNc1ccn(C2OC(CO)C(O)C2O)c(=O)n1 (configuration not stated) | x | 112.0 | 116.0 | 7.5
NC(=O)c1ccc(NC(=O)COC(=O)Cc2ccc(-c3ccccc3)cc2)cc1 | -15.1 | 101.0 | 106.0 | x
COc1ccc(C)cc1S(=O)(=O)NNc1nc(C)cc(C)n1 | 8.3 | 101.0 | 105.0 | -19.1
Cc1nc2cc(Cl)ccc2n1-c1ccccc1 | x | 103.0 | 107.0 | -13.2
CC(C)NC(=O)CN1CCN(c2nc(Cc3ccc(Cl)cc3Cl)nc3c2nnn3C)CC1 | -5.5 | 105.0 | 100.0 | -29.2
Cc1nn(-c2ccccc2)c2[nH]c(C(F)(F)F)cc(=O)c12 | -181.2 | 100.0 | 101.0 | 1.3
Clc1ncn(CCOc2ccccc2)c1Cl | x | 97.0 | 95.0 | 4.0
COc1ccc(C(=O)COC(=O)c2ccc(NC(C)=O)cc2)c(OC)c1 | 8.0 | 107.0 | 111.0 | 3.0
CCOC(=O)C1=C(C)NC2=C(C(=O)CC(c3ccco3)C2)C1c1cccs1 (configuration not stated) | -171.6 | 101.0 | 103.0 | -8.6
Cc1ccc(-c2c(C(=O)N3CCCCC3)oc(=O)c3ccccc23)cc1 | -1.1 | 104.0 | 107.0 | -8.6
CCOC(=O)c1sc2nc(CSc3nncn3-c3ccccc3)[nH]c(=O)c2c1C | -18.6 | 129.0 | 196.0 | 11.4
O=CNCCCc1nc2ccccc2n1Cc1ccc(F)cc1 | -4.2 | 100.0 | 101.0 | -13.4
O=C1CN(Cc2ccccc2)C(=NCc2ccco2)S1 | 37.9 | 101.0 | 103.0 | -26.7
O=c1c2[nH]cnc2n(-c2ccccc2)c(=O)n1Cc1ccccc1 | 0.3 | 104.0 | 97.0 | 0.5
Cc1ccc(NC(=O)C(Cc2ccccc2)NC(=O)c2ccco2)cc1 (configuration not stated) | -5.7 | 101.0 | 103.0 | -21.6
O=C(CN1CCc2sccc2C1c1cccs1)Nc1ccc2c(c1)OCO2 (configuration not stated) | 1.0 | 105.0 | 108.0 | -13.7
c1ccc(COc2ccccc2OCc2ccccc2)cc1 | x | 107.0 | 101.0 | 1.7
COc1ccc(COn2c(=O)c(C)[n+]([O-])c3ccccc32)cc1OC | -5.0 | 102.0 | 103.0 | -4.8
Cc1ccc(Cn2c(=O)n(CCC(=O)N3CCc4ccccc4C3)c(=O)c3ccccc32)cc1 | 8.0 | 104.0 | 107.0 | -21.2
CN(CCO)Cc1cc(N2CCN(C(=O)c3ccco3)CC2)c2c3c(onc13)-c1ccccc1C2=O | 15.2 | 75.0 | 196.0 | -20.8
CC(Oc1ccccc1Cl)C(=O)N1CCCc2ccccc21 (configuration not stated) | -14.2 | x | x | -12.6
Cc1n[nH]c(C)c1-c1ccc(Cl)c(C(=O)O)c1 | 24.7 | 103.0 | 101.0 | -152.8
CCNC(=S)n1ncc(C(=O)OCC)c1N | -7.4 | 106.0 | 100.0 | -32.6
CCC(O)C1=C(c2cccs2)Oc2ccccc2C1c1ccccc1C (configuration not stated) | 12.7 | 102.0 | 92.0 | -22.3
CC1Cc2cccc3c(O)cc(=O)n1c23 (configuration not stated) | 4.0 | 102.0 | 115.0 | -83.0

Remaining list, next part
SMILES | Mtb MbtI inh | PV pol inh | PV pol inh intensity | MenB inh
CC(C)CNC(=O)N1c2ccccc2Sc2ccccc21 | -5.2 | 100.0 | 98.0 | -18.9
O=C(O)C1=CC(c2ccccc2)n2nnnc2N1 (configuration not stated) | -8.1 | 102.0 | 100.0 | -11.9
CC(C)c1cc(N=NC(N)=O)cc(C(C)C)c1O | 0.0 | 100.0 | 103.0 | -84.6
Cn1c(=O)[nH]c2nnc(-c3ccccn3)nc2c1=O | 13.1 | 89.0* | 91.0* | -52.3
CC(O)(C#CCN1CCOCC1)c1ccccc1 (configuration not stated) | x | 112.0 | 116.0 | -23.1
CCOC(=O)C1CCN(C(=O)CN2C(=O)C(CC)Oc3ccccc32)CC1 (configuration not stated) | -4.6 | 101.0 | 102.0 | -31.8
Cc1sc2ncnc(SCCC(=O)O)c2c1C | 28.1 | 98.0 | 102.0 | -13.5
C=CCn1c(SCC(=O)N2CCCCC2)nc2scc(-c3ccc(C)o3)c2c1=O | -8.7 | 102.0 | 104.0 | -3.4
Cn1/c(=N/N=C\c2ccccc2)sc2ccccc21 | -2.3 | 102.0 | 99.0 | -35.3
C[N+]1(C)CCC[C@H]1C(=O)[O-] | -5.3 | 101.0 | 99.0 | -8.5
CCCNC(=O)c1cccc(COc2ccccc2OC)c1 | 7.2 | 101.0 | 102.0 | -13.4
Cc1nnc(SC(C(=O)N2CCCC2)c2ccccc2)n1N (configuration not stated) | 26.6 | 102.0 | 102.0 | -11.5
Cc1cnc(C(=O)OCC(=O)c2csc(N3CCCCC3)n2)cn1 | 2.2 | 109.0 | 104.0 | -24.4
COc1ccc(-c2nc(CSCC(=O)NC3CC3)c(C)o2)cc1OC | 116.7 | 101.0 | 104.0 | -14.9
CC(NCc1cccnc1)C12CC3CC(CC(C3)C1)C2 (configuration not stated) | -13.1 | 101.0 | 105.0 | -14.4
CNc1nc(N2CCc3ccccc32)ncc1F | -24.5 | 101.0 | 96.0 | -9.8
COc1ccc(SCC(=O)c2cc(C)n(Cc3ccco3)c2C)cc1 | 13.7 | 100.0 | 107.0 | -16.9
CC(C)n1c(=O)[nH]c2cc(C(=O)Nc3nccs3)ccc21 | 24.8 | 101.0 | 102.0 | -8.2
Cc1cc2occ(CC(=O)Oc3ccc(-c4nnco4)cc3)c2cc1C | -2.8 | 101.0 | 96.0 | -32.9
COc1ccc(-n2cc(C(=O)NC3CCCc4ccccc43)nn2)cc1 (configuration not stated) | -18.5 | 100.0 | 103.0 | 1.6
CC(NC(=O)Cn1nc(-c2ccccc2)ccc1=O)c1ccccc1 (configuration not stated) | 14.6 | 104.0 | 107.0 | -25.5

Molecules listed so far that have a cyano group (five):
SMILES | Mtb MbtI inh | PV pol inh | PV pol inh intensity | MenB inh
COC(=O)c1sc(S(C)(=O)=O)c(C#N)c1-c1cccs1 | 31.8 | 102.0 | 99.0 | -8.3
N#Cc1ccc(/C=C/C(=O)O)cc1 | 5.7 | 104.0 | 103.0 | -8.1
Cc1c(C#N)c(Sc2ccccn2)nc2ccccc12 | x | 101.0 | 98.0 | -9.6
CCCCN(CC)c1nc(N)c(C#N)c(CC#N)c1C#N | -54.0 | 143.0 | 175.0 | -12.7
N#CCn1c(COC(=O)c2cccs2)nc2ccccc2c1=O | -7.2 | 108.0 | 118.0 | -9.0

Fetched by compound from above:
SMILES | Mtb MbtI inh | PV pol inh | PV pol inh intensity | MenB inh
C[N+]1(C)CCC[C@H]1C(=O)[O-] | -5.3 | 101.0 | 99.0 | -8.5
Cc1cnc(C(=O)OCC(=O)c2csc(N3CCCCC3)n2)cn1 | 2.2 | 109.0 | 104.0 | -24.4
Cc1sc2ncnc(SCCC(=O)O)c2c1C | 28.1 | 98.0 | 102.0 | -13.5
O=C(O)C1=CC(c2ccccc2)n2nnnc2N1 (configuration not stated) | -8.1 | 102.0 | 100.0 | -11.9
